VACV mCherry inh – inhibitors of vaccinia virus infection (mCherry reporter signal) | Vaccinia virus mCherry reporter infection, fluorescence; about a quarter of the inactives have no number | Potency, µM (top dose mostly 36.5 µM), for the others: at the highest dose activity change, negative = inhibition, actives largely listed as inhibitors | 310,000 compounds, 0.63% hits; active = well fitted inhibition curve with a large enough effect; inconclusive = small, poorly fitted or top-dose-only effect; inactive = no such curve, though single readings can be large or run the other way; tested in A549 cells; note: nearly all actives have a fitted effect of over 35% in size; inactives centre near -10
VACV Venus inh – vaccinia inhibition (Venus reporter) | 330,000 compounds, 0.46% hits | AID 720580 | Potency, µM (series often up to 36.5 µM), for inactives: top-dose activity change, negative = inhibition, actives largely listed as inhibitors | Vaccinia virus Venus reporter expression, fluorescence; active means well fitted inhibition curve with a large enough effect; inconclusive means small, poorly fitted or top-dose-only effect; inactive means no such curve, though single readings can be large or run the other way; tested in A549 cells; note: nearly all actives have a fitted effect of over 30% in size; inactives centre near -10
Numbers without * were called inactive; i = inactive; ? = inconclusive; · = no result given; [ ] = another dose, or the depositor's remark. % is set by controls: 0 for no effect and ±100 for the full control effect; potency is the fitted concentration of half-maximal effect.

SMILES	VACV Venus inh	VACV mCherry inh
COc1cccc(Nc2nc(C(N)COCc3ccccc3)cs2)n1 (centres undefined)	-7.6%	-20.3%
CC(=O)Nc1nnc(-c2c(-c3ccccc3Cl)noc2C)o1	-0.8%	i
NNC(=O)CNC(=O)c1ccc(F)cc1	3.0%	-7.7%
O=c1nc2sc3ccccc3n2c(=O)n1-c1ccc(Cl)cc1	-4.3%	-0.7%
Cc1ccnc(NS(=O)(=O)c2ccc(NC(=O)c3ccc(C)o3)cc2)n1	-7.3%	i
CCOC(=O)CC1(NC(=O)C2CCC(=O)N(Cc3ccccc3F)C2)CCCCC1 (centres undefined)	0.0%[7.34 µM]	i[7.34 µM]
COc1cccc(N2CCN(c3ncccn3)CC2)c1	-7.5%	i
CC1=C(C(=O)N(C(C)C)C(C)C)CC(CC(=O)NCCc2ccccn2)C(=O)N1Cc1ccc(F)cc1 (centres undefined)	-11.8%	9.3%
CCN(CC)c1ccc(NC2CC(=O)N(CCc3ccc(OC)cc3)C2=O)cc1 (centres undefined)	9.9%	-8.0%
CC1=C(C(=O)Nc2cccnc2)C(c2cccc(Br)c2)n2nc(SCc3ccccc3)nc2N1 (centres undefined)	1.8%	3.5%
COc1ccc2c(c1)OC(O)(C(F)(F)F)CC2=O (centres undefined)	-7.6%	-11.0%
CCOc1ccc(-c2cc3nc(C4CCN(C(=O)OC(C)(C)C)CC4)c(C(=O)Nc4ccc(C)c(F)c4)cn3n2)cc1	-11.9%	-8.4%
COc1ccc(C(=O)C2CCCN(Cc3cn[nH]c3-c3ccc(F)cc3)C2)cc1OC (centres undefined)	-9.9%	-28.6%
O=C(CCNS(=O)(=O)c1ccc(Cl)cc1)N1CCOCC1	-14.1%	-2.9%
CN(C)c1ccc(N=Nc2cccc(F)c2)cc1	-11.5%	-22.1%
CC(=O)Nc1cc(-c2ccc(N3CCN(C)CC3)cc2)cn2c(-c3ccc(F)c(Cl)c3)cnc12	?	?
CC1(C(=O)Nc2cccc(C#N)c2)CCN1C(=O)CCc1ccccc1 (centres undefined)	-4.8%	i
CCSc1nnc2c(n1)OC(c1ccc(C)s1)Nc1ccccc1-2 (centres undefined)	-7.7%	-15.9%
CCN(CC)S(=O)(=O)c1ccc(N/N=C/c2ccc(OC)c(OC)c2OC)nc1	-5.4%	-15.6%
COc1cccc(CNC(=O)C(=O)NCCC2CCCCN2S(=O)(=O)c2cccs2)c1 (centres undefined)	-28.8%	-21.8%
CC(C)CC(=O)c1c[nH]c(C(=O)NCc2cccnc2)c1	-7.0%	-10.8%
O=C(Nc1cccc(Br)c1)c1cc2ccccc2o1	-18.4%	-14.5%
CC(=O)N1CCN(S(=O)(=O)c2cccc(C(=O)Nc3ccc4c(c3)OCO4)c2)CC1	-5.0%	-11.6%
CN(c1ccc(C(=O)NCCSCc2c(F)cccc2Cl)cc1)S(C)(=O)=O	-15.2%	-5.0%
O=C(/C=C/c1ccc(OCCCF)cc1)NCc1ccc(Cl)c(Cl)c1	-8.4%	·
CCOC(=O)C1=C(C)Nc2nc3ccccc3n2C1c1cccs1 (centres undefined)	-16.4%	-12.7%
CCCS(=O)(=O)N1CCCC(C(=O)NCCN(C)Cc2ccccc2)C1 (centres undefined)	-2.2%	·
COC(=O)[C@H](C)NC(=O)NCc1ccco1	-2.0%	-2.2%
COc1ccc(O)c(/C=N/NC(=O)CSc2nnc(C)n2-c2ccccc2)c1	?	·
CC(=O)NC(c1cccc([N+](=O)[O-])c1)c1c(OC(C)=O)ccc2ccccc12 (centres undefined)	-23.0%	-14.1%
O=S1(=O)CCN(Cc2ccccc2C(F)(F)F)CC1	-18.8%	-5.2%
COc1ccc(Br)cc1/C=N/NC(=O)C(c1ccncc1)N1CCOCC1 (centres undefined)	1.1%	-11.1%
O=C1CCCN1CCCN=c1c([N+](=O)[O-])nn(-c2ccc(Cl)cc2)n1O	?	?
Clc1ccccc1OCc1nc(-c2ccc(Br)o2)no1	10.3%	18.0%
CCCCc1n[nH]c(=S)n1Cc1ccccc1	-6.6%	i
Cc1ccc(S(=O)(=O)N2CCCCC2)cc1C(=O)NCc1ccc(S(N)(=O)=O)cc1	-18.3%	-2.2%
Cc1ccccc1-c1nc(CN(Cc2c(C)nn(C)c2C)C2CC2)c(C)o1	-18.5%	-15.1%
CC(=O)OCCn1c(Br)nc2c1c(=O)[nH]c(=O)n2C	-27.6%	-34.0%
Cc1cccc(N2CCN(C(=O)CCN3C(=S)NC(C)(C)CC3C)CC2)c1C (centres undefined)	-10.9%	-21.2%
C#CCOCCOCCOCCNc1nc(N2CCN(C(=O)CCCCCCCCCCNC(=O)Cn3cc(CCCCCN)nn3)CC2)nc(N2CCN(C(=O)CCCCCCCCCCNC(=O)[C@H](CO)n3cc(CCCCCN)nn3)CC2)n1	?	i
Cc1ccc(-c2nnc(Nc3ccc(O)cc3)c3ccccc23)cc1S(=O)(=O)N1CCOCC1	?	-21.2%
CCOc1ccccc1C1C(C(=O)Nc2ccccc2OC)=C(C)Nc2nc3ccccc3n21 (centres undefined)	-20.8%	-26.4%
CCOC(=O)C1(C)CCCN1C(=O)c1ccc(OC)c(OC)c1 (centres undefined)	-1.2%	11.8%
Cn1c(SCc2ccc(C(=O)Nc3nccs3)cc2)nnc1-c1ccccc1	-6.4%	-14.5%
CC1Cc2nc(SCC(N)=O)n(Cc3ccccc3)c(=O)c2S1 (centres undefined)	-4.8%	-5.1%
O=C(COc1ccccc1Cl)OCc1cc(=O)n2nc(C3CC3)sc2n1	-11.4%	-7.6%
CCCCN(CC)CCCNC(=O)c1sc2nc3n(c(=O)c2c1C)CCCCC3	-9.2%	-7.8%
COc1ccc(CNC(=O)c2ccc3c(c2)N(Cc2c(F)cccc2Cl)C(=O)CS3)cc1	-14.1%	-18.5%
O=C(N[C@@H]1CCC(=O)N(CC[C@H](Sc2ccc(Br)cc2)c2ccccc2)CC1)OCc1ccccc1	?	?
CCOc1ccc(S(=O)(=O)NC(C)C(=O)NCc2ccccn2)cc1 (centres undefined)	-12.7%	-9.0%
Cc1ccc(OCc2cc(C(=O)N3CCCC(C)C3)no2)cn1 (centres undefined)	?	-25.5%
COc1ccccc1-c1cc2nc(C)c(CCC(=O)Nc3ccc(Br)c(C)c3)c(C)n2n1	-9.9%	-16.2%
CN(C)/C=N/c1cc(=O)[nH]c(=O)n1CC1CC1	-4.5%	i
CC(C)(C)NC(=O)COc1ccccc1C#N	-13.6%	-14.4%
OC(c1ccc(Cl)cc1)c1ncc(-c2ccc(Oc3ccccc3)cc2)[nH]1 (centres undefined)	?	10µM*
Cc1ccc(-n2nnc3c(=O)n(CC(=O)N4CCC(C)CC4)cnc32)cc1	-19.7%	-12.3%

Further structures follow.
SMILES	VACV Venus inh	VACV mCherry inh
COc1ccc(CCN(C(=O)c2cccc(F)c2)C2CC(=O)N(c3ccc(OC)cc3)C2=O)cc1 (centres undefined)	-24.5%	·
CCCC(C)c1nnc(NC(=O)C(=O)OCC)s1 (centres undefined)	-11.7%	i
Cn1c(C2CC(=O)N(Cc3ccccc3)C2)nc2ccccc21 (centres undefined)	11.7%	-11.0%
CC(=O)c1cn(CC(=O)Nc2c(C)cccc2C)c2ccccc12	?	?
C=CCN(CC=C)C(=O)c1ccc2nc(Cc3ccc(OC)c(OC)c3)oc2c1	-13.4%	i
CCCCCSc1nc(N2CCOCC2)c2c(c1C#N)CC(C)(C)OC2	-9.0%	i
CC1=C(C(=O)Nc2ccccc2C)C(c2cccnc2)n2nc(SCc3ccccc3F)nc2N1 (centres undefined)	0.4%	-5.7%
C[C@H](CO)N1C[C@H](C)[C@@H](CN(C)Cc2ccncc2)Oc2c(NC(=O)c3ccncc3)cccc2C1=O	-9.2%	-6.1%
O=C(c1ccc(Cn2cnnn2)cc1)N1CCCC(Nc2ccc(F)cc2)C1 (centres undefined)	0.4%	-9.9%
O=C1NC(Cc2ccc(O)cc2)c2nc3cc(F)c(F)cc3c(=O)n2-c2cc3ccccc3cc21 (centres undefined)	?	-15.4%
CCOC(=O)c1cn(C2CC2)c2c(F)c(NCCCN(C)C)c(F)cc2c1=O	-1.9%[7.34 µM]	-5.8%[7.34 µM]
CCCCCCNC(=O)n1cc(F)c(=O)[nH]c1=O	-20.4%	?
Cc1ccc(S(=O)(=O)N2CCN(CC(=O)Nc3ccc([N+](=O)[O-])cc3)CC2)cc1C	-27.4%	-18.9%
CCN(CC)C1CCN(C(=O)c2ccc(OC3CCN(C(=O)CCOC)CC3)cc2)C1 (centres undefined)	-16.0%	-1.7%
c1ccc(COc2ncnc3c2ncn3CCCN2CCN(c3ccccn3)CC2)cc1	-25.3%	-16.6%
O=C(Nc1ccccc1-c1ccccc1)c1cccc(C(F)(F)F)c1	-9.9%	-4.9%
CCc1ccc(-c2[nH]nc3nc(-c4cc(OC)ccc4OC)cc(C(=O)O)c23)cc1	-5.5%	-3.6%
C=C(C)CNC(=S)N/N=C(\C)c1ccc(-n2ccnc2)cc1	-13.2%	-19.8%
CCS(=O)(=O)n1nc(-c2ccccc2)nc1SC	6.0%	i
O=C(COc1ccc(Cl)cc1)Nc1ccc(NC(=O)c2ccco2)cc1	2.1%	4.7%
CCC1(C)Cc2ccccc2-c2[nH]c(=S)[nH]c(=O)c21 (centres undefined)	-7.4%	i
O=C(O)c1ccccc1C(=O)c1ccc(N2CCCC2)c([N+](=O)[O-])c1	-4.0%	1.1%
C/C(Cl)=C\COc1cc(C)nc2c(Br)cccc12	1.8%	-0.1%
Cc1cc(C)n2nc(C(=O)N(C)c3c(N)n(Cc4ccccc4)c(=O)[nH]c3=O)nc2n1	-14.5%	-8.1%
O=C(CSc1nc2c(cnn2-c2ccc(F)cc2)c(=O)[nH]1)Nc1nccs1	-4.1%	0.0%
Cc1ccccc1OCC(=O)N1CCC2(CC1)CC(=O)c1ccccc1O2	-10.5%	-11.8%
O=C(/C=C/c1ccc(F)cc1)Nc1cc(S(=O)(=O)N2CCOCC2)ccc1N1CCCC1	-12.0%	-20.2%
C#CCN(C[C@@H]1[C@@H](OC(=O)NCC2CCCCC2)[C@@H](OC(=O)NCC2CCCCC2)CN(C(=O)OC(C)C)N1C(=O)OC(C)C)S(=O)(=O)c1ccc(C)cc1	?	i
Oc1c(C(c2ccccc2)N2CCN(c3ccccc3)CC2)sc2nc(-c3ccco3)nn12 (centres undefined)	-8.3%	-13.3%
Cc1ccc(N2CC(NC(=O)c3ccc4c(c3)OCO4)CC2=O)cc1 (centres undefined)	-12.7%[7.34 µM]	-6.6%[7.34 µM]
CCOC(=O)c1cc2sc(C)cc2n1CC(=O)Nc1ccc2c(c1)OCCO2	-13.2%	-20.7%
COc1ccc(C2C(C(C)=O)=C(O)C(=O)N2C)c(OC)c1 (centres undefined)	-17.7%	-26.2%
CCC1NC(C(=O)O)Cc2c1[nH]c1ccccc21 (centres undefined)	0.7%	34.3%[activator]
Cc1cc(C(=O)CSc2nc3ccccc3n2C)c(C)n1C	-6.4%	-13.7%
CCOC(=O)c1ccccc1NC(=O)COC(=O)CCNS(=O)(=O)c1cccs1	-3.8%	-10.0%
COCCn1c(C)cc(C(=O)CSc2nc3ccccc3c(=O)n2Cc2ccco2)c1C	-19.3%	i
Cn1c(Cc2ccccc2)nnc1SCC(=O)NC1CCCC1	2.1%	16.9%
CN(c1ccccc1)S(=O)(=O)c1cccc(C(=O)OCC(=O)Nc2ccc3[nH]c(=O)[nH]c3c2)c1	-15.5%	-14.5%
Cc1ccn(C(=O)c2cc3cc(Cl)ccc3oc2=O)n1	2.5%	-9.8%
CNC(=O)COC(=O)/C=C/c1c(C)nn(-c2ccccc2)c1C	-6.8%	i
CN1CCN(C(=O)c2ccc(COc3ccc(C(C)(C)C)cc3)o2)CC1	-29.0%	·
CCC(=O)Oc1ccc(-c2cnc3ccccc3n2)cc1	-3.3%	?
CCOc1ccc(OCCOc2cccc(C(F)(F)F)c2)cc1	-3.2%	-10.3%
NS(=O)(=O)c1ccc(N2CCN(C(=O)C3COc4ccccc4O3)CC2)nc1 (centres undefined)	-13.1%	-11.5%
O=C(NC1C=CS(=O)(=O)C1)c1sc2ccccc2c1Cl (centres undefined)	?	10µM*
COc1ccc(-c2noc(N3CCC(C(=O)N4CCN(c5ccccc5F)CC4)CC3)n2)cc1	-23.1%	-29.4%
CCOC(=O)C1(C)CCCN1C(=O)c1ccc(OC)c(F)c1 (centres undefined)	-9.3%	39.9%[activator]
CC(NC(=O)C1CCN(c2nc3ccccc3nc2C(F)(F)F)CC1)c1ccccc1 (centres undefined)	-10.2%	-3.8%
Cc1ccc(NC(=O)Cn2c3ccc(F)cc3c3nc4n(c(=O)c32)CCS4)cc1F	7.0%	i

Of the compounds above, four have a nitro group on carbon.
SMILES	VACV Venus inh	VACV mCherry inh
CC(=O)NC(c1cccc([N+](=O)[O-])c1)c1c(OC(C)=O)ccc2ccccc12 (centres undefined)	-23.0%	-14.1%
O=C1CCCN1CCCN=c1c([N+](=O)[O-])nn(-c2ccc(Cl)cc2)n1O	?	?
Cc1ccc(S(=O)(=O)N2CCN(CC(=O)Nc3ccc([N+](=O)[O-])cc3)CC2)cc1C	-27.4%	-18.9%
O=C(O)c1ccccc1C(=O)c1ccc(N2CCCC2)c([N+](=O)[O-])c1	-4.0%	1.1%
